H5N1 CPE – MDCK cell protection from H5N1 avian flu; cytopathic effect, luminescence, 72 h; stronger effect = higher value; no value below 0 was filed and about half of the inactive calls have no number; reference of the scale not given here; inhibition, % at 50 µM; 96,000 compounds, 0.07% hits; in the data active = inhibition above about 25%
The depositor's hits bear a star; i = inactive. A portion of the library; rates above refer to the full screens.

SMILES | H5N1 CPE
Cc1ccc(Nc2c3c(nc4ncnn24)CCC3)cc1 | 3.2
COc1n[nH]c2nncnc12 | i
COc1cc(C2C(C#N)=C(N)N(c3sc4c(c3C#N)CCCC4)C3=C2C(=O)CC(C)(C)C3)cc(OC)c1OC (configuration not stated) | 0.0
Oc1ccc(-c2n[nH]c(=S)n2Cc2ccccc2)cc1 | 1.4
COc1cccc(C(=O)NCCn2ccc3ccccc32)c1 | 1.1
Clc1ccc(SCCCCn2ccnc2)cc1 | i
COc1ccccc1N1CCN(C(CNS(=O)(=O)c2ccc(C)cc2)c2cccnc2)CC1 (configuration not stated) | 0.8
O=C(Nc1cccc(F)c1)/C(=C\c1cccnc1)NC(=O)c1cccs1 | i
COC(=O)c1[nH]c2ccc(Br)cc2c1NC(=O)CN1CCN(C2CCCCC2)CC1 | i
O=C(CSc1oc(-c2cccs2)nc1S(=O)(=O)c1ccccc1)NC1CCCCC1 | i
O/N=C1\CC2(Cc3nonc31)OCCO2 | 0.9
Cc1cc2nc(C)n(CCCNC(=O)Nc3ccc(C#N)cc3)c2cc1C | 1.3
Cc1nc(N[C@@H](Cc2c[nH]c3ccccc23)C(=O)O)c2oc3ccccc3c2n1 | 0.2
CCOC(=O)N1CCN(C(=O)c2c(O)c3cccc4c3n(c2=O)CC4)CC1 | 0.1
CCN(CC)C(=O)CSc1nc(O)cc(=O)n1C | 1.0
CCOC(=O)C1CCN(C(=O)CCc2c(C)nc3c(-c4ccc(F)cc4)c(C)nn3c2C)CC1 | 1.3
Cc1cccc(CSCCNC(=O)c2ccc(N(C)S(=O)(=O)c3ccccc3)cc2)c1 | i
Cc1ccc([N+](=O)[O-])cc1NC(=S)NC(=O)C(C)(C)C | 3.2
Cc1cc(C)nc(SCCn2c(N3CCCCC3)nc3c2c(=O)n(C)c(=O)n3C)n1 | 2.0
CCOC(=O)N1CCC(NC(=O)c2ccc(CS(=O)(=O)c3c(Cl)cccc3Cl)o2)CC1 | i
O=C(NCCc1cn2ccccc2n1)C1CCCCC1 | 1.2
O=C(Nc1ccc(Cl)cc1)OCc1cc(-c2ccccc2Cl)on1 | i
COc1ccc(S(=O)(=O)NCCSCc2cccc(C)c2)cc1Br | i
COc1cc(OC)c(C(=O)COc2ncnc3ccccc23)c(OC)c1 | i
Cc1cc(OCCCCCNCCO)cc(C)c1Cl | i

The list goes on.
SMILES | H5N1 CPE
CCOC(=O)N1CCC(NC(=O)C2CCN(S(=O)(=O)N3CCCC3)CC2)CC1 | 0.3
COc1ccc(C(=O)N2CCN(C(C)=O)CC2)cc1S(=O)(=O)NCc1ccc(Cl)cc1 | i
CC(C)c1ccc(NC(=O)C2CCN(S(C)(=O)=O)CC2)cc1 | 0.1
COc1ccc(NC(=O)c2cccs2)c([N+](=O)[O-])c1 | i
Cn1c(=O)oc2cc(S(=O)(=O)N3CCC4(CC3)OCCO4)ccc21 | 0.7
COc1ccc(-c2csc(Cc3nnc4n3CCCCC4)n2)cc1 | 2.2
O=C(CN1C(=O)NC2(CCCC2)C1=O)Nc1ccc(F)c(F)c1F | i
Cn1c(SCc2cc(=O)[nH]c3ccccc23)nnc1-c1ccc(Br)cc1 | i
Cc1noc(C)c1C(=O)NCc1cccs1 | 2.4
O=C(CSC1=NCCS1)Nc1nc(-c2ccccc2)cs1 | i
CCOc1cc2[nH]c(=S)n(CC3CCCN3CC)c(=O)c2cc1OCC (configuration not stated) | 1.3
CCOc1ccc(OCC)c(Nc2cc(C)nc3ncnn23)c1 | 0.3
CCC(C)(C(=O)NC1CCCC1)N(C(=O)c1ccccn1)c1ccccc1 (configuration not stated) | i
CS(=O)(=O)N1CCN(c2ccccc2NC(=O)c2cccs2)CC1 | 1.1
CCn1c(=Nc2ccc(N3CCOCC3)cc2)ccc2ccccc21 | 0.2
Cc1ccc(Sc2cnn(-c3ccccc3)c(=O)c2Cl)cc1 | 4.1
COc1ccc(-c2cc(N3CCCC3)n3ncnc3n2)cc1 | 1.4
CC(C#CCN1CCCCC1)OCCOCc1ccccc1 (configuration not stated) | 0.3
CCOc1ccc(NC(=O)CSc2nnc(Cc3cccn3C)n2-c2ccc(F)cc2)cc1 | 1.4
O=c1[nH]c(SCCOc2ccccc2)nc2ccccc12 | 0.3
COc1ccccc1C1Nc2cccc3cccc(c23)N1 | 0.4
CCn1c(CNc2ccccc2Cl)nnc1SCC(=O)NCc1ccccc1 | 0.9
OCCNc1nc(SCc2ccccc2)nc2sc3c(c12)CCC3 | 7.0
COc1cc(NC(=O)C2CCN(S(=O)(=O)c3ccc(Cl)cc3)CC2)ccc1-n1cnnn1 | i
CC(C)(C)NC(=O)Cn1c(SCC(=O)NC2CCCCC2)nc2ccccc21 | i

Exported field by field: entries from further up.
CC(C)c1ccc(NC(=O)C2CCN(S(C)(=O)=O)CC2)cc1
- H5N1 CPE = 0.1
COc1ccc(NC(=O)c2cccs2)c([N+](=O)[O-])c1
- H5N1 CPE = i
Cn1c(=O)oc2cc(S(=O)(=O)N3CCC4(CC3)OCCO4)ccc21
- H5N1 CPE = 0.7

Going on with the list:
SMILES | H5N1 CPE
CCOC(=O)CN1CC23C=CC(O2)C(C(=O)Nc2ccc(OCC)cc2)C3C1=O (configuration not stated) | 0.8
O=C(NCc1ccccn1)C1CCC(=O)N1C1CCCCC1 (configuration not stated) | 0.6
Cc1ccc(C(C(=O)NC2CCCCC2)N(Cc2cccnc2)C(=O)C2COc3ccccc3O2)o1 (configuration not stated) | 2.5
COC(=O)C1=C(N)Oc2cc(C)[nH]c(=O)c2C1c1cc(OC)c(OC)c(OC)c1 (configuration not stated) | i
COCCN1CCn2c(nc3cc(NC(=O)NC4CCCCC4)ccc32)C1 | 0.4
CCn1c(/C=N/c2nc3ccccc3n2C)nc2ccccc21 | 0.0
CCN(C1CCS(=O)(=O)C1)S(=O)(=O)c1cccs1 (configuration not stated) | 0.2
Cc1cccc(Nc2ccccc2C(=O)OCC(=O)NCc2ccco2)c1C | i
CCCCCCNC(=O)CCNC(=O)c1cc(OC)c(OC)c(OC)c1 | i
Cn1nnnc1SCC(=O)c1cccs1 | 1.0
CN1CCCN(CC(O)COCc2cccs2)CC1 (configuration not stated) | 0.6
CCOC(=O)c1cc2c(C)n(-c3ccc(N(C)C)cc3)c(C)c2cc(C(=O)OCC)c1=O | 0.8
O=C1OC(OC2CCCCC2)(c2ccccc2)c2ccccc21 (configuration not stated) | 0.1
CCN1CCN(C(=O)c2ccc(Cl)c(S(=O)(=O)N3CCOCC3)c2)CC1 | 0.1
Cc1ccc(-c2ccc(CCC(=O)O)n2NC(=O)c2cccs2)cc1 | i
O=C(O)COc1ccc(-c2nccc(-c3cccs3)n2)cc1 | i
O=C(CN1C(=O)c2ccccc2S1(=O)=O)N1CCN(c2ccc(F)cc2)CC1 | 0.4
COc1ccc2c(c1OC)C(=O)c1ccccc1C2=O | i
CCOC(=O)COc1ccc2nsnc2c1 | 1.1
COc1cc([N+](=O)[O-])ccc1NC(=O)C[n+]1ccccc1C | i
COc1cc(-c2nnc(SCC(=O)c3cc(C)n(CC4CCCO4)c3C)o2)cc(OC)c1OC (configuration not stated) | i
COc1ccc(CCNC(=O)CSc2nc3ccccc3o2)cc1 | 0.6
Cc1cccn2c(=O)c3cc(C(=O)NC4CCCC4)c(=N)n(C4CCCC4)c3nc12 | 7.4
COc1cc(CNCc2cccs2)ccc1OCC(=O)NC(C)(C)C | 0.2
N#C/C(=C(/O)CN1CCOCC1)c1nc(-c2ccccc2)cs1 | i

The results go on:
SMILES | H5N1 CPE
COc1nc(NCCc2ccc(OC)c(OC)c2)nc(OC)n1 | 0.0
CN(C)C(=O)CSc1nc2ccccc2n1CC(=O)N1CCN(c2ccccc2)CC1 | i
N#CCSc1nc2ccccc2c(=O)n1CCC(=O)NC1CCCCC1 | i
Cc1cc(C(=O)CSc2ccc(F)cc2)cc(C)c1OC(=S)N(C)C | i
Cc1c(Br)cc(C(=O)N2CCN(CCO)CC2)c(C)c1C | 1.0
COc1ccc(N(CC(=O)N/N=C/c2cccc3c2OCCO3)S(=O)(=O)c2ccc(NC(C)=O)cc2)cc1 | i
CC(C)(C)SCCNC(=O)COc1ccccc1 | i
CCCC1=Nc2cc(C(=O)NCCCOCC)ccc2Sc2ccccc21 | 0.8
O=C(COc1ccc(Cl)cc1)NCc1nnc(SCC(=O)NCCc2ccccc2)o1 | 1.0
C=C(C)C(C)(C#CCN1CCCC1)OC(C)=O (configuration not stated) | i
O=C(NNC(=S)Nc1ccccc1)c1ccncc1 | i
COc1ccc2oc(C(=O)c3ccccc3)c(N)c2c1 | i
Cc1nc(NCc2ccco2)nc2c1C(=O)CC(C)C2 (configuration not stated) | 15
CCNc1nc(NCC)nc(C(=O)OCCO)n1 | 0.8
Cn1cccc1-c1nc2ccc(NC(=O)c3ccco3)cc2[nH]1 | 2.1
CC1CC2(O)c3no[n+]([O-])c3CCC2N1O (configuration not stated) | 0.4
CN(c1cc(=O)n2ccccc2n1)C1CCCCC1 | 0.8
Cn1c(=O)cc(NCc2ccccc2)[nH]c1=O | 0.7
CNc1oc(C)nc1S(=O)(=O)c1ccc(C)cc1 | i
Cc1cc(NC(=O)c2ccccc2Oc2ccccc2)no1 | i
O=C1c2ccccc2C(Nc2ccc(S(=O)(=O)N3CCCCCC3)cc2)N1Cc1ccco1 (configuration not stated) | i
CCCNC(=O)c1ccc(CNc2c(N3CCC(C(=O)OCC)CC3)c(=O)c2=O)cc1 | 0.3
Cc1ccc2c(CC(=O)Nc3sccc3C(N)=O)coc2c1 | 0.3
CO/N=C(/CNC(=O)c1ccc(F)cc1)c1ccc(Cl)cc1 | i
COc1ccccc1-c1cc(-c2ccc(C)cc2)nc(SCc2nnc(-c3ccccc3)o2)c1C#N | 0.9

(list continues)
SMILES | H5N1 CPE
CC(=O)Nc1ccc(CN2CCN(c3cccc(C(F)(F)F)c3)CC2)cc1 | 0.1
O=S(=O)(c1ccccc1)N1CCC(n2nnc3cc(F)ccc32)CC1 | 0.1
CCOc1ccc(NC(=O)CN(c2cccc(C(F)(F)F)c2)S(C)(=O)=O)cc1 | i
N#CC1=C(SCC(=O)Nc2cccc3cccnc23)NC(=O)C(C#N)C12CCCCC2 (configuration not stated) | 0.8
O=C(Nc1ncn[nH]1)c1ccc(Cl)c(S(=O)(=O)N2CCCCCC2)c1 | 0.1
O=C(Nc1ccc(Cl)cc1F)C1CCN(S(=O)(=O)c2cccnc2)CC1 | i
COCCNC(=O)c1nn2cccnc2c1Cl | 0.8
CCC(=O)Nc1ccc(C(=O)CSc2nc3ccccc3cc2CC)cc1 | i
CCOc1ccc(C2CC(=O)NC3=C2C(=O)CCC3)cc1 (configuration not stated) | 0.2
COc1ccc(-n2c(SCC(=O)Nc3nccs3)nc3sc4c(c3c2=O)CCN(C)C4)cc1 | 1.8
CCc1c(C(=O)Nc2nnc(C3CC3)s2)csc1C | 1.0
COc1cccc(-c2nc(CS(=O)(=O)CC(=O)NCc3ccccc3)c(C)o2)c1 | i
O=C1CCCC2=C1C(c1ccco1)Nc1ccc3ccccc3c12 (configuration not stated) | 0.1
Cc1ccsc1C1C(C(=O)O)c2ccccc2C(=O)N1C (configuration not stated) | i
O=C(Cn1nnc(-c2ccccc2)n1)Nc1ccc2c(c1)OCO2 | 2.0
Cc1ccccc1CN1CCN(Cc2ccccc2C(F)(F)F)CC1 | i
O=c1[nH]c2cc3c(cc2cc1CN(CCc1ccccc1)Cc1nnnn1C1CCCC1)OCCO3 | 3.1
Cc1cc(C)nc(N2CCCC(C(=O)NCCC3=CCCCC3)C2)n1 (configuration not stated) | 0.7
N#CC1=C(N)Oc2cc(O)ccc2C1c1ccncc1 (configuration not stated) | 1.3
CCC(=O)NC(C)C(c1cccs1)N1CCN(Cc2ccccc2)CC1 (configuration not stated) | 1.3
COc1ccccc1-c1nnc(NC(=O)C(C)SC2=NCCS2)s1 (configuration not stated) | 3.4
COc1ccc(-c2nnc(COc3ccc4ccccc4c3)o2)cc1OC | i
CCCCSc1nc(C)c(C(C)=O)cc1C#N | i
Cc1onc(-c2c(F)cccc2Cl)c1C(=O)NCC1COc2ccccc2O1 (configuration not stated) | 0.6
Cc1cc(CC(C)C)n(-c2nc3ccccc3c(=O)n2OCc2ccccc2)n1 | 0.5

3 compounds drawn at random from those above:
SMILES | H5N1 CPE
O=S(=O)(c1ccccc1)N1CCC(n2nnc3cc(F)ccc32)CC1 | 0.1
CCC(=O)Nc1ccc(C(=O)CSc2nc3ccccc3cc2CC)cc1 | i
O=c1[nH]c2cc3c(cc2cc1CN(CCc1ccccc1)Cc1nnnn1C1CCCC1)OCCO3 | 3.1

Further compounds follow:
SMILES | H5N1 CPE
COc1ccc(C)cc1S(=O)(=O)N1CCC(C(=O)N2CCOCC2)CC1 | 0.1
CC(C)(C)n1nnnc1C(c1cccc(C(F)(F)F)c1)N1CCOCC1 (configuration not stated) | i
CCc1c(O)nc(SCC(=O)Nc2ccccc2C)[nH]c1=O | 0.3
COc1cc(S(=O)(=O)N2CCOCC2)ccc1NC(=O)CSc1nnc(N)s1 | 1.9
CCCCNC(=O)NS(=O)(=O)c1ccc(NS(=O)(=O)c2ccccc2)cc1 | 0.6
CC1CC(C)CN(CCCNC(=O)Cc2c(C(=O)O)[nH]c3ccccc23)C1 (configuration not stated) | i
CCOc1ccccc1N1CCN(Cc2ccc(Br)s2)CC1 | 0.8
O=C(O)CCNS(=O)(=O)c1ccc(Oc2ccccc2)cc1 | 0.2
CCCN(CCC)c1nc(Cl)nc(NCc2ccco2)n1 | 5.9
Cc1ccc(CCNS(=O)(=O)c2cnc[nH]2)cc1 | 0.8
CCC(C)n1cnc2c(=O)oc3ccccc3c21 (configuration not stated) | 3.8

A section from the list above, for reference:
SMILES | H5N1 CPE
CCOc1ccccc1N1CCN(Cc2ccc(Br)s2)CC1 | 0.8
O=C(O)CCNS(=O)(=O)c1ccc(Oc2ccccc2)cc1 | 0.2
CCCN(CCC)c1nc(Cl)nc(NCc2ccco2)n1 | 5.9
Cc1ccc(CCNS(=O)(=O)c2cnc[nH]2)cc1 | 0.8
CCC(C)n1cnc2c(=O)oc3ccccc3c21 (configuration not stated) | 3.8

Screens deposited in PubChem BioAssay by SRMLSC.
